Vaccinia Venus – vaccinia inhibition (Venus reporter) | Vaccinia virus Venus reporter expression, fluorescence | Potency, µM (series often up to 36.5 µM), inactives show at the top dose activity change, negative = inhibition, most hits filed as inhibitors | AID 720580 | hit rate 0.46% among 330,000; active means well fitted inhibition curve with a large enough effect; inconclusive means small, poorly fitted or top-dose-only effect; inactive means no such curve, though single readings can be large or run the other way; tested in A549 cells; note: nearly all actives have a fitted effect of over 30% in size; inactives centre near -10
Vaccinia mCherry – vaccinia inhibition (mCherry reporter) | AID 720579 | hit rate 0.63% among 310,000 | Vaccinia virus mCherry reporter infection, fluorescence; about a quarter of the inactives have no number | Potency, µM (series often up to 36.5 µM), without a hit: at the highest dose activity change, negative = inhibition, usual class: inhibitors; active = well fitted inhibition curve with a large enough effect; inconclusive = small, poorly fitted or top-dose-only effect; inactive = no such curve, though single readings can be large or run the other way; tested in A549 cells; note: nearly all actives have a fitted effect of over 35% in size; inactives centre near -10
Numbers without * were called inactive; i = inactive; ? = inconclusive; · = not tested or not shown; & = joins results of further samples; [ ] = dose if it differs, or a comment. % is set by controls: 0 for no effect and ±100 for the full control effect; potency is the fitted concentration of half-maximal effect.

#1 Cc1ccc(S(=O)(=O)N2CCCc3cc(NS(=O)(=O)c4ccc(F)cc4)ccc32)cc1
#2 Cc1cc(C(=O)COC(=O)Cc2n[nH]c(=O)c3ccccc23)c(C)n1-c1ccc2c(c1)OCCO2
#3 COc1ccc(C(C)NC(=O)Cc2cccs2)cc1 (stereo not given)
#4 Cc1cccc(C(=O)Nc2ccccc2C(=O)NCc2ccco2)c1
#5 Cc1ccc(N2CCN(C(=O)C3CCC(CNS(=O)(=O)c4ccc(Br)s4)CC3)CC2C)cc1 (stereo not given)
#6 Cc1ccccc1/C(N)=N/O

assay / compound	1	2	3	4	5	6
Vaccinia Venus	-9%	?	-11%	-18%	?	-13%
Vaccinia mCherry	-11%	?	-12%	-16%	?	-12%

The list goes on; the last 4 above are carried over.
#3 COc1ccc(C(C)NC(=O)Cc2cccs2)cc1 (stereo not given)
#4 Cc1cccc(C(=O)Nc2ccccc2C(=O)NCc2ccco2)c1
#5 Cc1ccc(N2CCN(C(=O)C3CCC(CNS(=O)(=O)c4ccc(Br)s4)CC3)CC2C)cc1 (stereo not given)
#6 Cc1ccccc1/C(N)=N/O
#7 CCOc1ccc(Oc2nc(NC)nc(N3CCOCC3)n2)nn1
#8 Cc1ccc2nc(CN3CCN(C(=O)Nc4ccc(F)cc4)CC3)oc2c1
#9 COC(=O)c1scc(-c2ccc(C)cc2)c1S(=O)(=O)N1CCN(c2ccc(C)cc2C)CC1
#10 Cc1ccc(C)c(NC(=O)CSc2nnc(NC(=O)C3CC3)s2)c1
#11 Cc1ccc(Nc2ccc(C(=O)N3CCCC3)cn2)c(C)c1
#12 Cc1cc2nc(N)sc2cc1C

assay / compound	3	4	5	6	7	8	9	10	11	12
Vaccinia Venus	-11%	-18%	?	-13%	-11%	-12%	10%	-6%	-2%	?
Vaccinia mCherry	-12%	-16%	?	-12%	0%	-17%	-2%	i	-17%	-15%

Among those listed so far, three have four or more nitrogen atoms.
#7 CCOc1ccc(Oc2nc(NC)nc(N3CCOCC3)n2)nn1
#8 Cc1ccc2nc(CN3CCN(C(=O)Nc4ccc(F)cc4)CC3)oc2c1
#10 Cc1ccc(C)c(NC(=O)CSc2nnc(NC(=O)C3CC3)s2)c1

assay / compound	7	8	10
Vaccinia Venus	-11%	-12%	-6%
Vaccinia mCherry	0%	-17%	i

Next part:
#13 COc1ccccc1N1CCN(CCCNC(=O)c2cnn(-c3ccccc3Cl)c2C2CCN(C(=O)OC(C)(C)C)CC2)CC1
#14 COc1ccc(CN(C(=O)CN2C(=O)c3ccccc3S2(=O)=O)C(C(=O)NCC2CCCO2)c2ccncc2)cc1 (stereo not given)
#15 COc1ccc(-n2ccnc2SCC(=O)c2c(N)n(C3CC3)c(=O)[nH]c2=O)cc1
#16 COc1ccc(CC(=O)NCc2ccc(-n3cccc3)cc2)cc1OC
#17 COc1ccc(Oc2nc(C)cc(C)c2S(=O)(=O)c2ccc(C)cc2)cc1
#18 C(=N\NC1=Nc2cccc3cccc1c23)/c1cccnc1

assay / compound	13	14	15	16	17	18
Vaccinia Venus	-18%	-1%	-10%	?	-7%	0%
Vaccinia mCherry	-20%	-9%	-2%	?	-1%	-4%

#19 COc1ccc(OCC(=O)Nc2ccc3c(c2)N(C)C(=O)c2ccccc2S3)cc1
#20 Cc1cccc(C)c1NC(=O)N1CCC(c2nc3ccccc3o2)CC1
#21 CC1CCN(S(=O)(=O)c2ccc3c(ccn3CCC(=O)NCc3ccccc3F)c2)CC1
#22 CCc1ccc(OCCOCC(O)CN2CCN(Cc3ccc(Cl)cc3)CC2)cc1 (stereo not given)
#23 CC(=O)OC/C=C(\C)CC/C=C(\C)CC/C=C(\C)CC/C=C(\C)CC/C=C(\C)CC/C=C(\C)CC/C=C(\C)CC/C=C(\C)CCC=C(C)C
#24 C=CCC1(CN2CCCC2=O)C(=O)NC(=O)NC1=O

assay / compound	19	20	21	22	23	24
Vaccinia Venus	-5%	-7%	-14%	-25%	0%	-5%
Vaccinia mCherry	4%	-12%	-6%	-7%	i	·

#25 CCCC(=O)n1nc(-c2cccnc2)nc1NCc1ccccc1
#26 CC(C)c1ccc(NC(=O)c2cc3c(=O)[nH]c4ccccc4c3n2C)cc1
#27 CCCOc1cccc(C(=O)Nc2ccc(-c3nc4ccccc4o3)cc2)c1
#28 O=C(COc1ccc2ccc(=O)oc2c1)Nc1ccc(N2CCOCC2)cc1
#29 Cc1nnc(NC(=O)CCC(=O)NCc2ccco2)s1
#30 Cc1ccccc1Nc1c(-c2cccc(O)c2)nc2ccc(Br)cn12

assay / compound	25	26	27	28	29	30
Vaccinia Venus	-18%&-7%	-20%	?	-14%	13%	-17%
Vaccinia mCherry	-8%	-18%	?	-13%	·	-14%

#31 Cc1cc(SCC2=NNC(=O)C2)c(Cl)cc1Cl
#32 CCn1nc(C)c(CN2CCCCC2C(=O)Nc2ccc(Oc3cccnc3)cc2)c1C (stereo not given)
#33 CCCCCNC(=O)C(c1ccc(OC)cc1)n1c(=O)c(-c2cc3ccccc3[nH]2)nc2ccccc21 (stereo not given)
#34 Fc1ccccc1NC(=S)N1CCN(Cc2ccc3c(c2)OCO3)CC1
#35 O=C1COc2ccc(-c3csc(-c4ccc(Cl)cc4)n3)cc2N1
#36 COc1ccc(Cl)cc1NC(=O)CN(C)C(=O)C12CC3CC(CC(Cl)(C3)C1)C2

assay / compound	31	32	33	34	35	36
Vaccinia Venus	-8%	-12%	?	-8%	?	-28%
Vaccinia mCherry	-15%	-14%	?	?	?	?

#37 C/C(=N\NC(=O)c1nnn(-c2nonc2N)c1C(C)C)c1ccc2ccccc2c1
#38 Cc1cc(C(=O)N2CCC2(C)C(=O)Nc2cccc3c2CCCC3)nn1C (stereo not given)
#39 CCC1CCCCN1CCNC(=O)C1CCN(S(=O)(=O)c2c(C)noc2C)CC1 (stereo not given)
#40 COc1cccc(NC(=O)Cn2c(=O)n(-c3ccccc3)c(=O)c3c4c(sc32)CCCC4)c1
#41 CC1Sc2ccc(C(=O)Nc3cc(S(C)(=O)=O)ccc3Cl)cc2NC1=O (stereo not given)
#42 COc1ccc(C(=O)Nc2c(N)nc(SCC(=O)Nc3ccc(NC(C)=O)cc3)[nH]c2=O)cc1OC

assay / compound	37	38	39	40	41	42
Vaccinia Venus	-20%	-4%	5%	-12%	-4%	-3%
Vaccinia mCherry	i	9%	-5%	-20%	i	i

#43 S=c1nc(Cc2ccccc2)[nH]c2ccccc12
#44 CCOC(=O)N1CCN(c2c(NCCc3ccc(OC)c(OC)c3)c(=O)c2=O)CC1
#45 CC1=N/C(=C\c2ccc3c(c2)OCO3)C(=O)N1c1ccc(C(=O)O)cc1
#46 CCOC(=O)[C@H]1[C@H]2COc3ccccc3[C@@H]2N2C(=O)[C@@H](C)NC(=O)[C@@]12C
#47 Cc1c(Cl)cccc1NS(=O)(=O)c1ccc(-c2cnc(C3CC3)o2)cc1
#48 Cc1cc2c(NC(=O)Nc3ccc(C(F)(F)F)cc3)cccc2nn1

assay / compound	43	44	45	46	47	48
Vaccinia Venus	4%	-6%	-3%	-3%	-25%	-6%
Vaccinia mCherry	i	i	-13%	-17%	?	i

#49 Cc1nc2ccc3nc(NC(=O)c4ccco4)sc3c2s1
#50 CN1CCN(C2=C(Cl)C(=O)N(c3ccc(Cl)cc3)C2=O)CC1
#51 O=C(CS(=O)(=O)c1cn(Cc2ccc(Cl)cc2)c2ccccc12)N1CCOCC1
#52 COCCn1c(SCC(=O)Nc2ccccc2)nc2c1c(=O)[nH]c(=O)n2C
#53 O=C(Nc1ccon1)c1cccc(S(=O)(=O)N2CCCC2)c1
#54 Cn1nccc1C(=O)NC1CC(C)(C)Cc2c1cnn2-c1ccc(F)cc1 (stereo not given)

assay / compound	49	50	51	52	53	54
Vaccinia Venus	-6%	-10%	8%	-6%	-9%	-16%
Vaccinia mCherry	-10%	?	i	i	-9%	-13%

Four entries from above, with each value named.
49	Cc1nc2ccc3nc(NC(=O)c4ccco4)sc3c2s1
  Vaccinia Venus: -6%
  Vaccinia mCherry: -10%
50	CN1CCN(C2=C(Cl)C(=O)N(c3ccc(Cl)cc3)C2=O)CC1
  Vaccinia Venus: -10%
  Vaccinia mCherry: ?
51	O=C(CS(=O)(=O)c1cn(Cc2ccc(Cl)cc2)c2ccccc12)N1CCOCC1
  Vaccinia Venus: 8%
  Vaccinia mCherry: i
52	COCCn1c(SCC(=O)Nc2ccccc2)nc2c1c(=O)[nH]c(=O)n2C
  Vaccinia Venus: -6%
  Vaccinia mCherry: i

More structures
#55 COc1ccc(C(C(=O)NCC2CCCO2)N(Cc2ccccc2)C(=O)c2snc(C(N)=O)c2N)cc1OC (stereo not given)
#56 C=CCSc1nnc(-c2cc3c(C(F)(F)F)nn(C)c3s2)n1C
#57 COC(=O)C1=C(c2cccc(OCc3ccccc3)c2)C[C@@H]2CC[C@H]1N2C(=O)NCc1ccc(N(C)C)cc1
#58 CCOC(=O)c1noc2nc(C)n(CC(=O)Nc3ccc(OC)c(Cl)c3)c(=O)c12
#59 CC(=O)Nc1cc(C(=O)N(C)Cc2ccco2)ccc1Sc1ccc(C)cc1
#60 O=C(NC1C/C=C\C(c2ccccc2)N(c2ccccc2)C(=O)C1)OCC1c2ccccc2-c2ccccc21 (stereo not given)

assay / compound	55	56	57	58	59	60
Vaccinia Venus	-10%	-21%	?	5%	-12%	-8%
Vaccinia mCherry	-11%	·	-27%	-7%	-17%	-23%

#61 O=C(c1cccs1)N1CCCC(c2ccccc2)C1 (stereo not given)
#62 O=C(O)CC(NC(=O)c1ccccc1NC(=O)c1ccccc1)C(=O)O (stereo not given)
#63 CC(=O)Nc1ccc(C(=O)Cn2c3[n+](c4c(F)c(F)ccc42)CCCCC3)cc1
#64 CC(=O)Nc1ccc(NC(=O)C2CCCN2S(=O)(=O)c2ccc3c(c2)CCCC(=O)N3)cc1 (stereo not given)
#65 COC(=O)c1cc(OC)nc2c1c(=O)n(C)c(=O)n2C
#66 CCOc1ccccc1NC(=O)c1ccc2c(c1)CCN2S(C)(=O)=O

assay / compound	61	62	63	64	65	66
Vaccinia Venus	-13%	2%	-1%	2%	-6%	4%
Vaccinia mCherry	-29%	-14%[1.46 µM]	1%	-4%	0%	-3%

#67 O=C(COc1ncnc2ccccc12)NCC1CCCO1 (stereo not given)
#68 CC(=O)Nc1ccc(S(=O)(=O)NC2CC(=O)N(c3cccc(F)c3)C2)cc1 (stereo not given)
#69 COc1ccc(C(=O)OCC(=O)Nc2cc(C)on2)cc1S(=O)(=O)N1CCOCC1
#70 CCCN(CC(=O)Nc1ccccc1C)C(=O)c1ccc(S(=O)(=O)N2CCC(C)CC2)cc1
#71 O=C1NC(O)CCN1C1CC(O)C(CO)O1 (stereo not given)
#72 O=C(Nc1ccc2ccccc2n1)c1ccc(Cl)cc1

assay / compound	67	68	69	70	71	72
Vaccinia Venus	0%	-27%	-21%	-26%	4%	-23%
Vaccinia mCherry	0%	-31%	-6%	-16%	36%[activator]	-2%

#73 O=C(NCCc1ccc(Cl)cc1)c1ccc2c(c1)N(Cc1c(F)cccc1Cl)C(=O)CS2
#74 Cc1[nH]c(C)c(S(=O)(=O)N2CCN(c3ccccc3)CC2)c1C(=O)N1CCCC1
#75 Cc1cccc(C)c1Nc1nc2ccccc2nc1NS(=O)(=O)c1ccccc1
#76 COc1ccc(-c2nc3ccc(Cl)cn3c2Cc2ccccc2)cc1OC
#77 CCN1CCCC1CN(Cc1cc2ccc(C)cc2[nH]c1=O)C(=S)Nc1ccccc1OC (stereo not given)
#78 CC(=O)Nc1ccc(/C=C2\Sc3ccccc3C2=O)cc1

assay / compound	73	74	75	76	77	78
Vaccinia Venus	-7%	1%	-7%	-3%	-25%	-2%
Vaccinia mCherry	-10%	i	-7%	i	-12%	i

Values in list order from above:
Nos. 73–78 in Vaccinia mCherry read -10%, i, -7%, i, -12%, i

Next part
#79 O=C(O)c1ccc(O)cc1O
#80 COCCCN1C(=O)C(=O)/C(=C(/O)c2ccc(OC(C)C)cc2)C1c1ccncc1 (stereo not given)
#81 CC(C)C[C@H]1CN=C(Nc2ccccc2)N1CC1CCCCC1
#82 C=C1SC(=Nc2c(C)cccc2Cl)N(C(=O)c2sc3ccccc3c2Cl)C12CCCCC2
#83 Cc1ccc(NC(=O)C2CCN(c3nc(-c4ccc(C(C)C)cc4)no3)CC2)c(Cl)c1
#84 O=C(COC(=O)c1cccc(Br)c1)NCc1ccco1
#85 CCOC(=O)Cc1csc(SCC(=O)N(CC(C)C)c2c(N)n(Cc3ccccc3)c(=O)[nH]c2=O)n1

assay / compound	79	80	81	82	83	84	85
Vaccinia Venus	-11%	-5%	-16%	-16%	-5%[7.34 µM]	-5%	-14%
Vaccinia mCherry	i	-2%	-1%	-3%	-8%[7.34 µM]	-5%	-15%

From PubChem BioAssay
